Source: PubChem
KCNQ2 pot – KCNQ2 (rat) channel potentiation; O88943; CHO-K1 KCNQ2, FluxOR thallium flux fluorescence; active compounds read high; B-score at 10 µM; actives 0.54% (n = 310,000);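 active = fluorescence ratio B-score at least 3 SD of library B-scores, with initial fluorescence B-score within 3 SD, cut at about 5.3 in these data; same plate scores as AID 2156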;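 also: B-score of peak minus minimum over baseline fluorescence ratio after K+ and Tl+ stimulus; positive B-score means potentiation of KCNQ2 with more thallium influx and brighter signal; only the inactives scoring about 0 or higher are listed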
Target sequence (O88943 whole entry, looked up): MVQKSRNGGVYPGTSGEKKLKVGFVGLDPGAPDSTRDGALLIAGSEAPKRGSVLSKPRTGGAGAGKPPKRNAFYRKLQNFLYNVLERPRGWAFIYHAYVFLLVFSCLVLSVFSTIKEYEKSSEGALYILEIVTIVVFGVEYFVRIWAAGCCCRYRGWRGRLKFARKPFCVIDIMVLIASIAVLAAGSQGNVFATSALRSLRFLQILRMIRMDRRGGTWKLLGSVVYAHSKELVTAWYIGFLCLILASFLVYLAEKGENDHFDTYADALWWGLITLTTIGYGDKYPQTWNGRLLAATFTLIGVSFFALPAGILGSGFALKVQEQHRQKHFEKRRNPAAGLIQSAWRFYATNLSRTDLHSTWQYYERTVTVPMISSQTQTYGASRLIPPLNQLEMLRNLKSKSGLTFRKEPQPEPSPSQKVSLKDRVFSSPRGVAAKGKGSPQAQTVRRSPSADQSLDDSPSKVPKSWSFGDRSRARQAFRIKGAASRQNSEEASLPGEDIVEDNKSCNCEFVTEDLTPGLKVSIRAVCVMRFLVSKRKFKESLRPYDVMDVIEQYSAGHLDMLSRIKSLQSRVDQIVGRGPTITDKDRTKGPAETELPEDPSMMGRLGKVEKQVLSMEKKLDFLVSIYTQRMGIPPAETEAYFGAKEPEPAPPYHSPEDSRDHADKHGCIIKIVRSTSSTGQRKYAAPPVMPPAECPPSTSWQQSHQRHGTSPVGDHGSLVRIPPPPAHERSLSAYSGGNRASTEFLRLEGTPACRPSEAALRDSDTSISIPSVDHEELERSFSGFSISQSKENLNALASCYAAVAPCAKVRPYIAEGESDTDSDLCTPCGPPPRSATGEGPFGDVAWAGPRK
KCNQ2 pot baseline – recorded beside KCNQ2 pot, whose call it bears; B-score; compound at 10 µM; measured here: initial fluorescence intensity artifact check;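 brightness before thallium and not channel activity; 0 = typical well and far values either way flag optical interference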
Active calls of the source: *.

SMILES	KCNQ2 pot	KCNQ2 pot baseline
CCC(=O)N1CCc2cc(Br)cc(S(=O)(=O)NCc3ccccc3OC)c21	0.02	-0.03
CCCCCc1c(O)nc(SCCN(CC)CC)[nH]c1=O	0.35	1.6
Nc1ccc(S(=O)(=O)Nc2ccccn2)cc1	0.55	0.81
O=C(CSc1nc(O)c(-c2ccccc2)c(=O)[nH]1)N1CCOCC1	1.6	1.8
CC(C)C1CC(C(=O)Nc2ccccc2)C(=O)O1 (stereo not drawn)	0.89	1.1
COc1ccc(C(=O)NC(=S)NNC(=O)c2ccc(O)cc2)cc1[N+](=O)[O-]	1.6	0.28
O=S(=O)(Nc1ccc(-c2nc3cccnc3s2)cc1)c1cccs1	1.5	0.36
CCN1CCN(c2nc(Nc3ccc(OC)cc3)nc(N)c2[N+](=O)[O-])CC1	0.25	-0.19
O=C(CCSc1ccc(Br)cc1)c1ccc(O)cc1	0.24	1.1
CCOC(=O)C(NC(=O)c1ccc(OC)cc1)(Nc1cc(C)on1)C(F)(F)F (stereo not drawn)	0.77	-0.62
CN(c1ccccc1)S(=O)(=O)c1cccc(C(=O)Nc2nn[nH]n2)c1	0.08	-0.66
COc1ccc(OC)c(C(=O)c2coc3cc(Br)c(O)c(Br)c23)c1	3.7	-3.6
CC1CCCCC1NC(=O)COC(=O)c1ccc2ccccc2n1 (stereo not drawn)	1.4	1
O=C(CNC(=O)c1ccc(Br)o1)NCc1ccc2c(c1)OCO2	0.38	-1
COc1ccccc1NC(=O)Nc1ccnn1C1CCCCC1	0.14	-0.28
O=C(NCCOc1ccccc1Cl)c1cc(F)c(F)cc1Cl	0.5	-1.4
COc1ccc(Br)cc1S(=O)(=O)N1CC(C)OC(C)C1 (stereo not drawn)	2.9	-0.76
COc1ccc(/C=C/c2nc3cc(-c4ccccc4)ccc3o2)cc1O	0.68	0.47
Cc1ccc2cc(CN(CC3CCCO3)S(=O)(=O)c3c(C)ccc4nsnc34)c(=O)[nH]c2c1 (stereo not drawn)	0.2	-1.1
COC(=O)C1SCC2C(=O)N(Cc3ccc(Cl)cc3)CC(=O)N21 (stereo not drawn)	1.4	-1.7
O=C(N/N=C/C1CC2CCC1C2)C1CC1 (stereo not drawn)	0.48	-1.2
CCS(=O)(=O)Nc1cc(OC)c(OC)cc1Cc1nccc2cc(OC)c(OC)cc12	1.9	0.8
CCCCc1nc(N)c(C#N)c(-c2ccco2)c1CCC	0.65	-0.88
O=C(Nc1ccc2c(c1)OCCO2)C(=O)c1c[nH]c2ccccc12	0.01	0.47
CC1=[N+]([O-])C(C)(C)C(c2ccc(Br)cc2)=[N+]1[O-]	0.75	0.8
SMILES	KCNQ2 pot	KCNQ2 pot baseline
CC(=O)Nc1cccc(-c2csc(Nc3ccc(C)cn3)n2)c1	0.99	1
CC1=C([N+](=O)[O-])C(c2ccccc2)NC(=O)N1 (stereo not drawn)	2.2	-1.6
CCCC(C)C(=O)Nc1ccc(S(N)(=O)=O)cc1 (stereo not drawn)	0.73	-0.44
CCOC(=O)c1c(NC(=O)/C=C\C(=O)O)sc(C)c1-c1ccccc1	0.68	0.03
COc1ccc(N(CC(=O)Nc2cccc([N+](=O)[O-])c2C)S(C)(=O)=O)cc1OC	0.83	-1.3
O=C(O)[C@@H]1CCCN1C(=O)c1ccco1	0.01	0.92
O=C(Cn1nc(Cc2cccnc2)c2ccccc2c1=O)Nc1cc(F)ccc1F	0.6	-1.5
Cc1ccc(Nc2nc(=O)[nH]nc2C)cc1	1.3	-0.01
CCN(CC)S(=O)(=O)c1ccc(N2C(=O)Nc3ccccc3N2O)cc1	0.62	0.59
c1ccc2c(c1)NC1(CCCCC1)n1c-2nc2ccccc21	1.9	-0.37
CCN(CC)S(=O)(=O)c1ccc(C(=O)NCCc2cc3c(OC)ccc(OC)c3[nH]c2=O)cc1	2	-0.54
COc1ccc(S(=O)(=O)N(C)C)cc1NS(=O)(=O)c1ccc(F)c(F)c1F	0.14	0
Cc1cccc2sc(NC(=O)C3CCN(C(=O)c4ccco4)CC3)nc12	1.5	-0.22
COc1cc(C2NC(=S)NC(c3ccccc3)=C2C(C)=O)cc(Cl)c1OCC(=O)O (stereo not drawn)	0.32	-0.09
CCOCCCNC(=O)c1oc2ccc(S(=O)(=O)N3CCOCC3)cc2c1C	2.5	0.08
C=CCN1C(=O)c2ccccc2NC1c1ccc(Br)s1 (stereo not drawn)	1.2	0.33
CC(C)(C)c1ccc(/C=C2\SC(=O)N(CCNC(=O)c3cccc(S(=O)(=O)N4CCOCC4)c3)C2=O)cc1	1.4	2.1
CCOC(=O)C1=C(C)N(CCCC(=O)O)C(=O)NC1c1ccc(Cl)cc1Cl (stereo not drawn)	2.1	-0.4
COc1ccc(S(=O)(=O)N2CCCCC2)cc1N(C)S(=O)(=O)c1ccccc1	0.09	0.06
CCCCCCOc1ccc(N2C(=O)CC(N3CCN(C(=O)c4ccco4)CC3)C2=O)cc1 (stereo not drawn)	0.73	-0.15
COc1ccccc1NC(=O)CN(Cc1ccco1)C(=O)c1cncc(Br)c1	0.8	-2.2
C[C@H](N=C1NS(=O)(=O)c2ccccc21)C(=O)OCc1cc([N+](=O)[O-])cc2c1OCOC2	0.9	-0.01
COc1cc(/C=N\n2cnnc2)ccc1OCC(=O)Nc1ccc(C)cc1	0.5	1.5
CC(C)CC(NC(=O)OC(C)(C)C)C(=O)NCc1ccccc1 (stereo not drawn)	0.01	-0.88
O=C(Nc1cccc(C(=O)Nc2ccc(Br)cc2)c1)c1ccccc1	2.2	-0.56

Reformatted with values under each structure: entries from further up
Results follow in this order: KCNQ2 pot	KCNQ2 pot baseline
COc1ccc(C(=O)NC(=S)NNC(=O)c2ccc(O)cc2)cc1[N+](=O)[O-]
    1.6	0.28
O=S(=O)(Nc1ccc(-c2nc3cccnc3s2)cc1)c1cccs1
    1.5	0.36

Further compounds.
SMILES	KCNQ2 pot	KCNQ2 pot baseline
CC(C)NC(=O)Cn1cc(C(=O)C2CC2)c2ccccc21	1	0.09
O=C(Nc1ccc(Cn2cccn2)cc1)c1ccc(COc2ccccc2Br)cc1	0.37	1.1
CCN(C(=S)Nc1ccccc1F)C1CCCCC1	1.6	-2
O=C(Nc1ncccc1O)c1c(O)c2ccccc2[nH]c1=O	0.45	-0.57
CNC(=O)c1c(NC(=O)c2ccc(S(=O)(=O)N3CCCCC3)cc2)sc2c1CCN(C(C)C)C2	0.92	0.97
CCCn1c(=N)n(CC(O)c2ccc(C)cc2)c2ccccc21 (stereo not drawn)	0.93	0.02
O=C(Nc1ccc(Cl)cc1)N1CCSC1=NCc1ccccc1	0.03	0.41
COC(=O)[C@H](CC(C)C)NC(=O)Nc1cccc(Br)c1	0.56	1.1
Nn1c(Cc2ccccc2)n[nH]c1=S	0.29	-0.18
Cc1nnc(NC(=O)c2cc(-c3ccncc3)nc3c(C)cccc23)s1	2.7	2
O=C(NCCC1=CCCCC1)C1CCCN(S(=O)(=O)c2ccccc2)C1 (stereo not drawn)	0.46	0.01
CCCn1cc(CN2CCC(Cc3cccc(F)c3)(C(=O)OCC)CC2)c(C)n1	0.07	-0.1
CC1(C)C2CC[C@]3(C)C(CC=C4[C@@H]5C[C@@](C)(CO)[C@@H](O)C[C@]5(C(=O)O)CC[C@]43C)[C@@]2(C)CC[C@@H]1O (stereo partly drawn)	0.02	-0.22
Cc1ccc(Cn2nnc(C(=O)Nc3cccc(C)c3C)c2N)cc1	0.05	-0.03
O=C(O)COc1ccccc1/C=N/NC(=O)CSc1nnc(SCc2cccc3ccccc23)s1	0.7	3.1
CCC(C)N(C(=O)COC(=O)COc1c(C)cc(C)cc1C)C1CCS(=O)(=O)C1 (stereo not drawn)	0.21	-0.03
Nc1nnc(CC(c2ccccc2)c2ccccc2)s1	0.77	0.4
Cc1ccc(Oc2nc(-c3ccccc3)ncc2S(C)(=O)=O)cc1	0.73	0.54
O=C(CSc1nnc2scc(-c3ccccc3)n12)NCc1ccco1	0.4	-0.04
COc1ccccc1NC(=S)N/N=C1\CC(C)(C)Oc2ccc(O)cc21	0.16	1.8
Cc1ccc(C(=O)CSc2nc3ccccc3c(=O)n2N)o1	0.31	-0.14
O=C(NCCCN1CCOCC1)c1ccc2c(c1)N(Cc1c(F)cccc1Cl)C(=O)CS2	0.06	-0.19
COc1ccc(C)cc1S(=O)(=O)N(C)CC(=O)Nc1ccc2c(c1)OCO2	0.19	0
Cc1ccc(O)c(CNc2nc3ccccc3n2C)c1	0.03	-1.3
O=C(NC(=S)Nc1c(F)cc(F)cc1Br)c1ccc2c(c1)OCCO2	0.11	-1

Rewritten with bars between the fields: entries from further up.
structure | KCNQ2 pot | KCNQ2 pot baseline
O=C(Nc1ncccc1O)c1c(O)c2ccccc2[nH]c1=O | 0.45 | -0.57
CNC(=O)c1c(NC(=O)c2ccc(S(=O)(=O)N3CCCCC3)cc2)sc2c1CCN(C(C)C)C2 | 0.92 | 0.97
CCCn1c(=N)n(CC(O)c2ccc(C)cc2)c2ccccc21 (stereo not drawn) | 0.93 | 0.02
O=C(Nc1ccc(Cl)cc1)N1CCSC1=NCc1ccccc1 | 0.03 | 0.41
COC(=O)[C@H](CC(C)C)NC(=O)Nc1cccc(Br)c1 | 0.56 | 1.1
Nn1c(Cc2ccccc2)n[nH]c1=S | 0.29 | -0.18
Cc1nnc(NC(=O)c2cc(-c3ccncc3)nc3c(C)cccc23)s1 | 2.7 | 2

(listing goes on)
SMILES	KCNQ2 pot	KCNQ2 pot baseline
Cc1cccc(NC(=S)/N=C(\N)Nc2nc(C)c3ccccc3n2)c1	0.02	-1.4
Cc1nn(C)c(C)c1CCC(=O)N1CCCC(N2CCN(c3ccc(F)cc3)CC2)C1 (stereo not drawn)	0.96	-0.04
CCn1c2ccccc2c2cc(NC(C)=O)ccc21	1.9	-0.17
CCOC(=O)C1=C(c2ccccc2)NC(SC)=C(C#N)C1c1cccnc1 (stereo not drawn)	0.69	0.85
CC(=O)Oc1ccc(C(=O)Nc2cccnc2)cc1	4.8	-2.5
O=S(=O)(c1cccc(NC(=S)NCc2ccco2)c1)N1CCOCC1	1.1	0.05
COc1ccccc1Nc1nc(N)nc(CN2CCN(c3ccccc3F)CC2)n1	3	0.01
O=C1COc2ccc(C(=O)COC(=O)c3cc(S(=O)(=O)N4CCOCC4)ccc3F)cc2N1	0.76	-1.4
O=C(c1ccc(Br)o1)N1CCCc2ccccc21	0.18	-0.01
CC(C)CCNC(=O)CCn1nc(-c2ccc(Cl)cc2)ccc1=O	0.93	-1.1
CCOc1cc(/C=N/N2CCOCC2)ccc1OCc1ccc(C(=O)OC)o1	0.32	-0.27
CCOC(=O)c1sc(=S)n(CC)c1NC(=O)c1ccccc1	2.1	-0.07
CC(C)c1ccc(OCCCCN2CCCCC2)cc1	1.2	-0.03
CCC1S/C(=C(\C#N)C(=O)NCc2ccco2)N(c2ccc(Br)cc2)C1=O (stereo not drawn)	0.21	0.4
Oc1ccc2ccccc2c1Br	0.59	-1.6
COC(=O)c1ccc2[nH]c(CO)c(-c3ccccc3)c2c1	1.1	0.18
N#Cc1c(-c2ccccc2)nc2n(c1=O)CCS2	0.64	0.3
CC(C)C1=C2OC(N)=C(C#N)C(C#N)=C2C(C)CC1 (stereo not drawn)	0.05	1.4
O=C(CN1C(=O)CC(c2ccco2)Sc2ccccc21)Nc1ccc2c(c1)OCCO2 (stereo not drawn)	0.23	-0.98
CC1=C(C(=O)NCCN2CCN(C)CC2)C2(CCC(C)CC2)OC1=O (stereo not drawn)	1.3	0.17
CC(C)(C)Nc1nc(-c2ccccn2)nc2ccccc12	1.2	1
CCCCCc1nnc(NC(=O)OCCC)s1	1.6	-0.91
O=C(CSc1nnnn1C1CCCC1)Nc1cccc(NC(=O)c2ccco2)c1	1.1	0.06
CCCCCN1CSC(=S)N(Cc2ccccc2)C1	0.07	0.38
CCC(=NCc1ccco1)c1c(C(F)(F)F)[nH]n(-c2nc3ccccc3s2)c1=O	7.8*	-0.05*

Continued, starting with the last four of the part before.
SMILES	KCNQ2 pot	KCNQ2 pot baseline
CCCCCc1nnc(NC(=O)OCCC)s1	1.6	-0.91
O=C(CSc1nnnn1C1CCCC1)Nc1cccc(NC(=O)c2ccco2)c1	1.1	0.06
CCCCCN1CSC(=S)N(Cc2ccccc2)C1	0.07	0.38
CCC(=NCc1ccco1)c1c(C(F)(F)F)[nH]n(-c2nc3ccccc3s2)c1=O	7.8*	-0.05*
COCCn1c(Sc2nc(C)cs2)nc2c1c(=O)[nH]c(=O)n2C	0.62	0.04
CC(C)CCNC(=O)C1CCC(=O)N1C(C)C (stereo not drawn)	0.3	-0.03
COc1cc(NC(=O)C2CCN(S(=O)(=O)c3cccc4nonc34)CC2)cc(OC)c1	2.1	0.1
Cc1cccc(C)c1NC(=O)CCCSc1nnnn1C	0.05	-1.4
O=c1c2c([N+](=O)[O-])cc([N+](=O)[O-])cc2sn1Cc1ccccc1	0.68	2.4
CCNC(=S)Nc1scc(-c2ccccc2)c1C(=O)OCC	12*	-0.02*
COc1ccc(C2(C)NC(=O)N(CC(=O)c3ccc4c(c3)OCO4)C2=O)cc1 (stereo not drawn)	1.5	1
NC(=O)CN1CCN(S(=O)(=O)c2ccc(Cl)cc2)CC1	0.03	-0.56
O=C(NC1CCN(S(=O)(=O)c2ccc(F)cc2)CC1)C1CCCCC1	0.32	0.21
O=C(Nc1ccccc1)c1ccc(S(=O)(=O)N(CCO)CCO)cc1	0.37	2.2
CC(=O)N[C@@H](Cc1c[nH]c2ccccc12)C(=O)NCCc1ccc(S(N)(=O)=O)cc1	0.45	-0.27
NC(=O)c1cnn2c(-c3cccc(C(F)(F)F)c3)ccnc12	0.98	-1.5
Cc1nn(CC(=O)N2N=C(C(F)F)CC2(O)C(F)F)c(C)c1[N+](=O)[O-] (stereo not drawn)	0.32	0.41
CC(CC(=O)NCc1ccc(F)cc1)c1ccccc1 (stereo not drawn)	2.9	-0.03
Cc1cc(C(=O)COc2ccccc2[N+](=O)[O-])c(C)n1-c1cccc(S(=O)(=O)N2CCOCC2)c1	0.59	0.98

An excerpt; rates above refer to the full screens.
